Screens: PubChem, ICCB-Longwood Screening Facility, Harvard Medical School
AID504770: E. coli YBA685 growth inhibition, screen for V. cholerae RctB inhibitors; E. coli YBA685 rctB-dependent plasmid, OD600 growth, 3 h; hits give low values; z-score (no concentration beside the values); 0.27% of 130,000 active;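 active = z-score under -2 on both plates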;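 note: wells of about 30 µL received 100 nL stock; score is relative to mean and SD of the test wells; the first replicate is given; strong numbers were not always called active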
CapD inh: inhibitors of Bacillus anthracis CapD enzyme | purified CapD enzyme, fluorescence intensity read-out; hits give low values; some hits fall short of the stated cut | 0.23% of 140,000 active | AID 492967 | z-score (concentration not given with the values);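 active = z-score under -4 in either of two replicates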;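 note: stock transfer was 100 nL into about 40 µL; score is relative to mean and spread of the plate; one replicate is shown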
An asterisk follows results filed as active; . = not tested or not shown; & = joins results of further samples. Rows are unselected; 0.41% or so of the library scored in one or more.

canonical_smiles	CapD inh	AID504770
S=C(NCC1CCCO1)Nc1ccc(N2CCCCC2)cc1 (stereo not given)	.	1.45
CCOC(=O)/C(C#N)=C\c1cc2ccc(OC)cc2[nH]c1=O	.	0
COc1ccc(S(=O)(=O)N2CCN(Cc3cccc(Cl)n3)CC2)cc1	-0.98	.
Cc1sc(Nc2ccccc2)nc1-c1ccccc1	.	0.5
COC(CNC(=O)c1cccc(NS(=O)(=O)c2ccc(C)cc2)c1)OC	0.145	0.3
O=C(c1cncc(NS(=O)(=O)c2ccc(Cl)cc2)c1)N1CCCc2ccccc21	78.5	1.85
O=C(CSc1nncs1)Nc1ccccc1	.	1.45
CCc1sc(-c2nnc(CSc3nnc(-c4ccncc4)n3C)o2)cc1C	.	0.25
COC(=O)c1ccc(C(=O)OC)c2c(C(=O)OC)ccc(C(=O)OC)c12	1.27	0.35
CC(C)c1ccc(C2CC(=O)NC(SCC(=O)Nc3cccc(C(F)(F)F)c3)=C2C#N)cc1 (stereo not given)	-0.01	.
Cc1ccc(C)c(C(=O)CSc2nc3ccccc3o2)c1	0.245	0
Cc1occc1-c1nnc(SCC(=O)N(C)C)o1	.	-0.9
CCOC(=O)C1=C(C)N=c2s/c(=C/c3cc(OC)c(O)cc3Br)c(=O)n2C1c1ccc(OC)cc1 (stereo not given)	-0.845	.
Cc1sc(NC(=O)c2ccco2)c(CN2CCc3ccccc3C2)c1C	-0.47	-0.05
O=C(Nc1cccnc1)NC1CC(=O)N(c2ccccc2)C1 (stereo not given)	.	2.1
CSc1nc(Sc2ccc(Br)cc2)c2sccc2n1	0.675	.
O=C(OCc1nc2ccccc2c(=O)[nH]1)c1ccc(S(=O)(=O)N2CCCC2)cc1	.	0.25
CCOC(=O)Cc1csc(NC(=O)c2cc3nc(-c4ccc5c(c4)OCO5)cc(C(F)(F)F)n3n2)n1	0.11	.
NC(=O)c1cccc(C(N)=O)c1	0.715	0.15
CNC(=O)C(C)n1sc2ccccc2c1=O (stereo not given)	-0.155	-0.75
COCCOC(=O)C1=C(C)NC2=C(C(=O)CC(c3ccc(OC)cc3)C2)C1c1ccc(Br)cc1 (stereo not given)	0.59	.
N#Cc1c(Cl)cccc1Oc1ccc(S(=O)(=O)N2CCC3(CC2)OCCCO3)cc1	0.855	.
CCOP(=O)(CN)OCC	-0.255	.
COc1ccc(N2C(=O)CCC(C(=O)O)C2c2ccccc2)cc1 (stereo not given)	.	1.5
N#Cc1nccnc1Oc1ccc(Cl)cc1	0.37	-0.35
COc1ccc(-n2ncc(NC(=O)Nc3ccc4c(c3)OCCCO4)c2C)cc1	-1.01	0.4
CC1=CC(=O)c2ccccc2C1=O	0.15&-0.525	0.65
COc1ccc(C2Nc3ccccc3C(=O)N2c2ccccc2)cc1CSc1ccccn1 (stereo not given)	25.4	.
CC1(C)CC(/C=C/c2ccccn2)=Cc2c1sc(N)c2C#N	-1.94	0
COc1cccc(NC(=S)N(Cc2ccco2)C(C)c2ccco2)c1 (stereo not given)	-0.89	0.7
COCCNc1c(-c2ccccc2)nc2cc(C)ccn12	.	-0.05
Cc1ccc(C(=O)N/C(=C\c2ccccc2)C(=O)Nc2c(C)n(C)n(-c3ccccc3)c2=O)cc1	-0.355	1.45
Cc1cc(C)n(-c2ccc(Cl)c(C(=O)NN3C(C)CCCC3C)n2)n1 (stereo not given)	.	0.6
Nc1cc(-c2ccccc2)nn1CCO	.	-0.4
CCCN(CCC)C(=O)c1cc2c(=O)[nH]c3ccc(C)cc3c2s1	39.2	-1
COC(=O)c1ccccc1N1C(=O)C=CC1=O	-0.45	-2.45*
CCC1(C)Cc2ccccc2-c2nc(NCCO)n(-c3ccccc3)c(=O)c21 (stereo not given)	17.7	-1.7
Cc1nn(Cc2cccc3ccccc23)c(C)c1NC(=O)C1CC1c1ccccc1 (stereo not given)	-0.06	-0.35
COc1cccc(N(CCN2C(=O)c3ccccc3C2=O)C(=O)C(C)C)c1	.	1
Cc1nnnn1CC(=O)Nc1ccc(F)cc1	-0.545	-0.75
Cc1ccn2c(=O)cc(COc3ccc4c(c3)OCO4)nc2c1	.	1.85
COC(=O)COc1ccc2cccc(-n3cnnn3)c2c1	.	1.25
CCCn1nnc(NC(=O)/C=C/c2ccccc2)n1	.	-1.05
CC(Sc1nncn1-c1ccccc1)C(=O)N1CCc2ccccc21 (stereo not given)	.	-0.4
Cc1cc(Cl)ccc1OC1C(=O)N(c2cccc(C(F)(F)F)c2)C1c1ccc2c(c1)OCO2 (stereo not given)	0.08	1.25
COc1ccccc1/C=C1\CC/C(=C\c2ccccc2OC)C1=O	8.28	0.55
O=C(CN1CCOCC1)N1c2ccccc2Sc2ccc(C(F)(F)F)cc21	-0.1	.
CC1CCCCC1NC(=O)c1ccc(F)cc1 (stereo not given)	.	0.85
CCC(=O)Nc1c(C(=O)N2CCc3ccccc3C2)cnn1-c1ccc(C)c(C)c1	0.175	-0.9
CCn1cc(/C=C2/C(=O)N(c3ccccc3)c3ccccc32)c2ccccc21	-0.23	-0.85
N#CC1=C(N)SC(N)=C(C#N)C1c1ccccc1	4.84	-0.65
Cc1nc2ccc(Oc3ccc4nc(C)[nH]c4c3)cc2[nH]1	0.115	1.15
CCC(Sc1nnc(-c2c[nH]c3ccccc23)n1CC)C(=O)OC (stereo not given)	-0.49	2.65
CSc1nc(-c2ccccc2F)c(C#N)c(=O)n1C	.	1.7
O=S(=O)(CCN1CCN(C(c2ccccc2)c2ccccc2)CC1)C(F)(F)F	0.1	0.3
O=C(CCCNC(=O)OCc1ccccc1)NNC(=O)c1ccc2nsnc2c1	-0.095	.

Random excerpt: 2 compounds from above
canonical_smiles	CapD inh	AID504770
N#CC1=C(N)SC(N)=C(C#N)C1c1ccccc1	4.84	-0.65
O=S(=O)(CCN1CCN(C(c2ccccc2)c2ccccc2)CC1)C(F)(F)F	0.1	0.3

Continued:
canonical_smiles	CapD inh	AID504770
Cc1cc(C)nc(N(C#N)Cc2ccccc2Cl)n1	0.89	-0.05
COc1ccc(OC)c(C2=NCC(=O)Nc3c2oc2ccc(Br)cc32)c1	-0.1	.
O=C(Cn1c2ccc(F)cc2c2nc3n(c(=O)c21)CCS3)NC1CCCC1	.	-0.45
COc1ccc(CNC(=O)/C=C/c2ccc(OCCCF)cc2)cc1OC	0.275	.
COc1ccccc1C(=O)N/N=C/c1c(O)c(I)cc2oc3c(c12)CCCC3	0.3	-0.2
Cc1cc(C)c(CN)c(=O)[nH]1	.	-1
Cc1cc(C)nc(SCCc2ccncc2)n1	-0.515	-0.35
Cc1noc(C)c1C(=O)N(CC(=O)Nc1ccccc1Br)Cc1ccco1	.	0.3
CCOC(=O)NCCN1CCN(c2ncc(C(F)(F)F)cc2Cl)CC1	-0.1	.
O=C(Nc1cc(Cl)ccc1Oc1ccc(Cl)c2ccccc12)c1cc(Cl)cc(I)c1O	-0.395	.
CNC(=O)CN1C(=O)CCCc2ccccc21	-0.55	0.25
Cn1c(C(N)=O)cc2ccccc21	1.33	0.6
CCOC(=O)c1c(-c2ccccc2)oc2ccc(OC(=O)c3cc4ccccc4o3)cc12	0.155	.
CC(=O)N1CCc2c(sc3c2c(=O)n(-c2ccccc2)c(=O)n3CC(=O)Nc2cc(C)[nH]n2)C1	-0.26	1.1
O=C1C2C3C=CC(O3)C2C(=O)N1c1ccccc1C(F)(F)F (stereo not given)	-1.18	-0.75
O=C1CN(C(=O)CC2c3ccccc3-c3ccccc32)CC(=O)N1	0.2	-1.25
Cc1ccc(Cn2nc(C)c(/C=C/C(=O)OCc3nc4c(oc5ccccc54)c(=O)[nH]3)c2Cl)cc1	.	0.1
COc1ccc(OC)c(C2N(Cc3ccccc3C)CCN2Cc2ccccc2F)c1 (stereo not given)	-1.76	1.85
CC(C)(C)/C=N/NC(=O)C1CC1	0.32	-0.6
O=C(c1ccc(NC2=NC3CS(=O)(=O)CC3S2)cc1)N1CCN(c2ccccc2)CC1 (stereo not given)	0.715	-0.9
COc1ccc(CNC(=O)C(OC(=O)c2ccc(Cl)nc2)c2ccccn2)cc1 (stereo not given)	.	-0.35
Cn1c(O)c(C=NCCc2c[nH]c3ccccc23)c(=O)[nH]c1=S	-0.555	-0.15
Cc1ccc(C2OC(=O)c3ccccc32)cc1Cl (stereo not given)	-0.055	.
CCc1ccc(-n2c(N3CCCC3)nc3ccccc3c2=O)cc1	-0.175	-0.55
Cc1nc(N2CCN(c3ccccn3)CC2)c2c(C)c(C(=O)NCc3ccccn3)sc2n1	0.525	.
CCOc1cc(C2Nc3ccccc3NC3=C2C(=O)CC(c2ccc(OC)c(OC)c2)C3)ccc1O (stereo not given)	-1.48	.
CSc1nnc(C)n1Cc1ccccc1	.	0.15
NC(=O)C1CCN(C(c2ccccc2)c2sc3ncnn3c2O)CC1 (stereo not given)	.	2.05
O=[N+]([O-])c1cc(C(F)(F)F)cc([N+](=O)[O-])c1NCCc1ccc(Cl)cc1	-0.45	.
COc1ccccc1-c1c(C(F)(F)F)oc2c(CN3CCN(C)CC3)c(O)ccc2c1=O	-0.315	.
O=C(COc1cccc2cccnc12)c1ccccc1	.	0.5
Cn1cc(S(=O)(=O)c2ccc(Cl)cc2)c(=O)c2cc(F)ccc21	-0.81	-0.85
CC1=Nc2cc(C(=O)O)ccc2Sc2ccc(Br)cc21	3.62	0.5
CC(=O)NC1C(Oc2ccc([N+](=O)[O-])cc2)OC(COC(C)=O)C(OC(C)=O)C1OC(C)=O (stereo not given)	0.44	.
CCc1cc2c(=O)c(Oc3ccccc3F)c(C(F)(F)F)oc2c(CN(C)C)c1O	0.11	1
COc1ccc(S(=O)(=O)Nc2ccc3c(c2)N(S(=O)(=O)c2cccc(C(F)(F)F)c2)CC3)cc1	-0.53	.
COc1ccc(OCCN2CCN(S(=O)(=O)c3ccc(Cl)s3)CC2)cc1	.	0.25
CCOC(=O)C1=NNC2(c3ccc(Cl)cc3)C(=O)N(c3cccc(Br)c3)C(=O)C12 (stereo not given)	-0.04	.
Cc1cccc(N2C(=O)CS/C2=N/NC(=O)c2cccc(Cl)c2)c1	.	0.05
CC(=O)Nc1ccc(C(=O)OC2CCCCC2)cc1	-0.195	-0.6
O=C1CC(SCCc2nc3ccccc3[nH]2)C(=O)N1c1ccc(F)cc1 (stereo not given)	0.395	1.2
CC12CCC(C(=O)N3CCSCC3)(OC1=O)C2(C)C (stereo not given)	0.115	.
Cc1ccc(NC(=O)CSc2nc3ccccc3c(=O)n2CCCC(=O)NCCCN2CCOCC2)cc1C	-0.37	.
COc1ccc(CCN2C(=S)N(c3cccc(C(F)(F)F)c3)C(=O)C2CC(N)=O)cc1OC (stereo not given)	8.13	-0.5
CCOC(=O)c1ccc(NC2=CC(C)(C(=O)OCC)N(c3ccccc3)C2=O)cc1 (stereo not given)	-0.32	.
CC(NC(=O)CS(=O)(=O)c1ccccc1)c1ccccc1 (stereo not given)	-1.88	1.55
CC(C)(Oc1ccc(C(C)(C)C)cc1)C(=O)O	0.21	.
COc1ccc(NCCC(=O)O)cc1	0.01	-1.25

Three entries already listed, sorted by length of the SMILES, highest first:
canonical_smiles	CapD inh	AID504770
COc1ccc(CCN2C(=S)N(c3cccc(C(F)(F)F)c3)C(=O)C2CC(N)=O)cc1OC (stereo not given)	8.13	-0.5
CC(C)(Oc1ccc(C(C)(C)C)cc1)C(=O)O	0.21	.
COc1ccc(NCCC(=O)O)cc1	0.01	-1.25

Continuation:
canonical_smiles	CapD inh	AID504770
Cc1ccc(NC(=S)N2CCCC(c3ccccc3)=N2)cc1	-2.62	-0.8
CCCN1CCC(N(C(=O)CCC(=O)N2CCN(C(c3ccccc3)c3ccccc3)CC2)C2CC2)CC1	-0.145	.
FC(F)Oc1ccc(/C=N/N2CCOCC2)c(OC(F)F)c1	.	0
O=[N+]([O-])c1ccc(C2N(c3ccccc3)N=C(c3ccccc3)N2c2ccc(N3CCOCC3)cc2)cc1 (stereo not given)	-0.51	.
COc1ccc(C2CC(=O)C3=C(C2)Nc2ccccc2NC3c2cccc(Br)c2)cc1OC (stereo not given)	-1.21	.
CNC(=S)Nc1cccc(C(F)(F)F)c1	-0.73	-1.25
CC(C)(C)NC(=O)NCC1CCCC1NC(=O)NC(C)(C)C (stereo not given)	0.01	-0.8
CCC(C)NC(=O)c1ccc2cn[nH]c2c1 (stereo not given)	0.19	-0.3

Complete entries, looked up by structure. Screens in order: CapD inh	AID504770
Listed for FC(F)Oc1ccc(/C=N/N2CCOCC2)c(OC(F)F)c1 : .	0
Listed for O=[N+]([O-])c1ccc(C2N(c3ccccc3)N=C(c3ccccc3)N2c2ccc(N3CCOCC3)cc2)cc1 (stereo not given) : -0.51	.
Listed for COc1ccc(C2CC(=O)C3=C(C2)Nc2ccccc2NC3c2cccc(Br)c2)cc1OC (stereo not given) : -1.21	.

Continuation:
canonical_smiles	CapD inh	AID504770
CCN1CCN(C(=O)c2cc(-c3ccccc3O)no2)CC1	-0.165	-0.8
Clc1cc(Cl)c(OCc2cc(-c3ccccc3)no2)cc1Cl	-0.9	.
COc1cc(-c2c(C#N)c(SCC#N)nc(N)c2C(=O)OC(C)C)cc(OC)c1OC	27.9	0.65
COc1cc(C(=O)OCc2nnc(-c3ccc(Cl)cc3)o2)cc(CN2C(=O)c3ccccc3C2=O)c1OC	.	-0.05
COC(=O)Cn1c(=O)c(C)nc2ccccc21	.	-0.55
Nc1nc2ccc(NC(=O)C3CCC(C(=O)O)CC3)cc2s1 (stereo not given)	.	-0.75
